Vaccinia stage: blocks a specific stage of Vaccinia orthopoxvirus infection, primary screen, cell-based, single point; Vaccinia-infected cells, mCherry/Venus stage reporter fluorescence; active compounds read low; some inactives read as strong as hits; activity change (mCherry), % (no concentration beside the values); 0.01% of 89,000 active; AID 1053133, 2014;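 active = mCherry past -33% and 40 or more points under the early reporter, replicates agreeing; inconclusive = past -33% without that gap or agreement; tested in A549 cells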;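 also: scaled between vehicle wells and reference inhibitor wells; 23 nL library stock went into each well; one replicate is shown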
Vaccinia stage Venus: recorded beside Vaccinia stage, whose call it bears; activity change (Venus), %; measured here: Venus reporter, other viral stage;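 negative = less Venus signal; first of two replicates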
Numbers without * were called inactive; ? = inconclusive; / = not tested or not shown. An excerpt (hit frequency here may not be typical).

SMILES | Vaccinia stage | Vaccinia stage Venus
C[C@@H]1CCCCO[C@@H](CN(C)C(=O)Nc2ccc(C(F)(F)F)cc2)[C@H](C)CN([C@H](C)CO)C(=O)c2cc(NS(=O)(=O)c3ccc(F)cc3)ccc2O1 | -30 | -17
COc1ccc(C#Cc2ccc3c(c2)[C@]2(C(=O)N3)[C@H](C(=O)N3CCCCCCC3)[C@H]3C(=O)O[C@H](c4ccccc4)[C@H](c4ccccc4)N3[C@@H]2c2ccc(O)cc2)cc1 | 2 | -3
CC(C)NC(=O)N(C)C[C@H]1Oc2ccc(NC(=O)C3CCCCC3)cc2CC(=O)N([C@@H](C)CO)C[C@@H]1C | 18 | 20
CO[C@H]1CN(C)C(=O)c2cc(NS(=O)(=O)c3ccc(Cl)cc3)ccc2OC[C@H](C)N(C)C[C@H]1C | 8 | 0
O=S(=O)(c1ccccc1)N1CCCCN2[C@@H](CO)[C@H](c3ccc(C#CC4CCCC4)cc3)[C@@H]2C1 | -12 | -11
O=C(CN1CCOCC1)NCC[C@H]1CC[C@H](NC(=O)c2ccc3c(c2)OCO3)[C@@H](CO)O1 | -2 | 12
C[C@@H]1CN([C@@H](C)CO)C(=O)Cc2cc(NC(=O)Nc3ccccc3)ccc2O[C@@H]1CN(C)C | 22 | 12
C[C@H](CO)N1C[C@H](C)[C@@H](CN(C)S(=O)(=O)c2ccccc2)OCCCC[C@H](C)Oc2ccc(NC(=O)Cc3ccccc3)cc2C1=O | ? | /
COc1ccc(CN(C)C[C@@H]2OCCCC[C@@H](C)Oc3ccc(NS(=O)(=O)c4ccccc4)cc3C(=O)N([C@@H](C)CO)C[C@@H]2C)cc1 | -18 | -19
COc1ccc(CN(C)C[C@@H]2Oc3ccc(NC(=O)Nc4c(C)noc4C)cc3C(=O)N([C@@H](C)CO)C[C@H]2C)cc1 | 7 | 11
Cc1ccccc1S(=O)(=O)N1C[C@@H](O)COC[C@@H]2O[C@@H](CC(=O)NCCc3ccccc3)CC[C@H]21 | 0 | -10
CC(C)CC#Cc1ccc2c(c1)O[C@H](CN(C)C(=O)c1cccnc1)[C@H](C)CN([C@@H](C)CO)S2(=O)=O | -7 | -3
CC(C)c1cn([C@H]2C[C@@H]3O[C@@H](CO)CC[C@@H]3O[C@@H]2CCc2ccc(C#CC3(O)CCCC3)cc2)nn1 | -7 | -14
C[C@@H]1CCCCO[C@H](CN(C)C(=O)Nc2ccccc2)[C@@H](C)CN([C@@H](C)CO)C(=O)c2cc(NS(=O)(=O)c3cn(C)cn3)ccc2O1 | 19 | 4
O=C(C[C@H]1CC[C@H](NS(=O)(=O)c2cccc(F)c2)[C@H](CO)O1)NCc1ccc2c(c1)OCO2 | 9 | 5
CNC[C@@H]1OCCCC[C@H](C)Oc2ccc(NS(=O)(=O)c3ccc(Cl)cc3)cc2C(=O)N([C@H](C)CO)C[C@@H]1C | -3 | 10
C[C@H]1CN([C@@H](C)CO)C(=O)c2ccccc2-c2ccccc2CO[C@H]1CN(C)C(=O)c1ccncc1 | 18 | 5
C[C@@H]1CN([C@@H](C)CO)C(=O)c2cc(NC(=O)c3ccccc3)ccc2O[C@@H](C)CCCCO[C@H]1CN(C)C(=O)CCC(F)(F)F | ? | /
C[C@H](CO)N1C[C@H](C)[C@@H](CN(C)C(=O)Nc2ccccc2F)Oc2ncc(-c3cccc(F)c3)cc2C1=O | 2 | 7
CC(C)NC(=O)N1C[C@H]2[C@@H](c3ccccc31)[C@@H](CO)N2C(=O)c1ccccc1F | 18 | 10

Some of these compounds in order of molecular weight, high to low.
SMILES | Vaccinia stage | Vaccinia stage Venus
C[C@@H]1CCCCO[C@@H](CN(C)C(=O)Nc2ccc(C(F)(F)F)cc2)[C@H](C)CN([C@H](C)CO)C(=O)c2cc(NS(=O)(=O)c3ccc(F)cc3)ccc2O1 | -30 | -17
C[C@H](CO)N1C[C@H](C)[C@@H](CN(C)S(=O)(=O)c2ccccc2)OCCCC[C@H](C)Oc2ccc(NC(=O)Cc3ccccc3)cc2C1=O | ? | /
O=S(=O)(c1ccccc1)N1CCCCN2[C@@H](CO)[C@H](c3ccc(C#CC4CCCC4)cc3)[C@@H]2C1 | -12 | -11

The list goes on:
SMILES | Vaccinia stage | Vaccinia stage Venus
COCC(=O)Nc1ccc2c(c1)C(=O)N(C)[C@@H]1CC[C@H](CC(=O)NCCc3ccncc3)O[C@H]1CO2 | -5 | -1
COc1ccc(-c2ccc3c(c2)[C@@H]2[C@@H](CCN2C(=O)c2cnccn2)[C@H](CO)N3)cc1 | 12 | 17
COc1cccc(CNC(=O)C[C@H]2CC[C@@H](NC(C)=O)[C@H](CO)O2)c1 | 2 | 4
C[C@@H]1CN([C@@H](C)CO)C(=O)CCCn2nncc2CO[C@@H]1CN(C)Cc1ccc(C(=O)O)cc1 | 15 | 18
O=C(C[C@@H]1C[C@H]2c3cc(NC(=O)NC4CCCCC4)ccc3O[C@H]2[C@H](CO)O1)NCc1ccccn1 | -17 | -5
COc1cccc(C(=O)Nc2ccc3c(c2)C(=O)N(C)[C@H]2CC[C@H](CC(=O)Nc4ccc5c(c4)CCCC5)O[C@@H]2CO3)c1 | -3 | -9
O=C1N[C@H](c2ccccc2)COCc2cn(nn2)CC[C@@H]1Cc1cccc(Cl)c1 | 14 | 5
O=C(c1cccc(F)c1)N1C[C@H]2[C@@H](c3ccccc31)[C@H](CO)N2C(=O)C1CC1 | -6 | 6
C[C@H](CO)N1C[C@H](C)[C@@H](CN(C)C(=O)Nc2cccc3ccccc23)OCCCC[C@H](C)Oc2ccc(NC(=O)CCCN(C)C)cc2C1=O | 29 | 21
COc1ccc(CN(C)C[C@@H]2Oc3ccc(NC(=O)C4CC4)cc3CC(=O)N([C@@H](C)CO)C[C@H]2C)cc1 | -4 | -4
C[C@@H]1CN([C@@H](C)CO)C(=O)c2cc(NC(=O)C3CCCCC3)ccc2O[C@@H]1CN(C)S(=O)(=O)c1cn(C)cn1 | 7 | 5
C[C@@H]1CN([C@H](C)CO)C(=O)c2cc(/C=C/c3ccccc3)cnc2O[C@H]1CN(C)C | 1 | -1
COc1ccc(-c2ccc([C@H]3[C@H]4CN(Cc5ccccc5)CC(=O)N4[C@H]3CO)cc2)cc1 | -11 | -8
O=C(C[C@H]1C=C[C@H](NS(=O)(=O)c2ccccc2)[C@H](CO)O1)NCc1ccccc1F | 1 | -4
C[C@@H]1CN([C@H](C)CO)C(=O)c2cccc(NC(=O)c3nc4ccccc4s3)c2O[C@@H]1CN(C)C(=O)Nc1cccc2ccccc12 | 14 | 12
Cc1noc(C)c1NC(=O)N(C)C[C@@H]1Oc2ccc(NC(=O)NC3CCCCC3)cc2C(=O)N([C@@H](C)CO)C[C@@H]1C | 8 | 5
C[C@H](CO)N1C[C@H](C)[C@H](CN(C)Cc2ccncc2)Oc2c(NC(=O)Nc3ccc(C(F)(F)F)cc3)cccc2C1=O | -20 | -15
Cc1noc(C)c1S(=O)(=O)Nc1ccc2c(c1)C(=O)N([C@@H](C)CO)C[C@@H](C)[C@@H](CN(C)C(=O)Nc1ccc(F)cc1)OCCCC[C@@H](C)O2 | -11 | -9
COc1cccc(C#Cc2ccc3c(c2)O[C@@H](CN(C)S(=O)(=O)c2ccccc2F)[C@H](C)CN([C@H](C)CO)S3(=O)=O)c1 | -2 | 5
N#C[C@H]1[C@H](c2ccc(C#Cc3ccccc3F)cc2)[C@H](CO)N1C(=O)C1CCCC1 | ? | /
CCCN(C)C[C@H]1OCCCC[C@H](C)Oc2ccc(NS(=O)(=O)c3ccccc3)cc2C(=O)N([C@H](C)CO)C[C@H]1C | -16 | -15
C[C@@H]1CN([C@@H](C)CO)C(=O)c2cc(NS(=O)(=O)c3ccccc3)ccc2O[C@H]1CN(C)C(=O)Nc1ccccc1 | 17 | 16
CN1C(=O)c2cc(NS(=O)(=O)c3ccccc3Cl)ccc2OC[C@@H]2O[C@H](CC(=O)O)CC[C@H]21 | 3 | 2
C[C@@H]1CN([C@@H](C)CO)C(=O)c2cccc(NC(=O)C3CC3)c2O[C@H]1CN(C)C | -2 | -2
CCCN1C[C@@H](C)[C@@H](OC)CN(C)C(=O)c2ccc(NS(=O)(=O)c3cn(C)cn3)cc2OC[C@@H]1C | 12 | 2
O=C(NCC[C@H]1CC[C@@H](NS(=O)(=O)c2cccc(F)c2)[C@H](CO)O1)C1CCCC1 | -3 | 0
COc1ccc2c3c([nH]c2c1)[C@@H](CO)N(C(=O)c1ccc(F)cc1)CC31CCN(C(=O)Nc2cccc(F)c2)CC1 | -8 | -10
C[C@@H]1CN([C@H](C)CO)C(=O)c2cccc(NS(=O)(=O)c3cccs3)c2O[C@@H]1CN(C)CC1CC1 | 6 | 7
CNC[C@@H]1Oc2ccc(NC(=O)NC(C)C)cc2C(=O)N([C@@H](C)CO)C[C@H]1C | 2 | -1
C[C@H](CO)N1C[C@H](C)[C@@H](CN(C)Cc2ccncc2)Oc2ccc(NC(=O)Cc3ccccc3)cc2CC1=O | 4 | -3
C[C@@H]1CN([C@H](C)CO)C(=O)c2cc(NC(=O)CCC(F)(F)F)ccc2O[C@@H](C)CCCCO[C@H]1CN(C)Cc1ccc(C(=O)O)cc1 | 16 | 13
C[C@@H](NC(=O)[C@H]1[C@H](CO)[C@H]2Cn3c(ccc(-c4cccnc4)c3=O)[C@@H]1N2C)c1ccccc1 | 1 | 1
CCS(=O)(=O)N1CCCCN2[C@H](C1)[C@@H](c1ccc(-c3ccccc3C)cc1)[C@@H]2CO | 7 | 2
O=C(Nc1cccc(F)c1)N1CC(=O)N2[C@@H](CO)[C@@H](c3ccc(C#CC4CC4)cc3)[C@@H]2C1 | 3 | -11
CCCC(=O)N1CC2(C1)CN(C(=O)C1CCOCC1)[C@@H](CO)c1[nH]c3cc(OC)ccc3c12 | 6 | 2
CCCNC(=O)N(C)C[C@H]1Oc2ncc(C#CCc3ccccc3)cc2C(=O)N([C@H](C)CO)C[C@@H]1C | 30 | 32
C[C@H](CO)N1C[C@H](C)[C@@H](CN(C)C(=O)NC2CCCC2)Oc2ncc(-c3ccccc3)cc2C1=O | 4 | 2
CC(C)NC(=O)Nc1ccc2c(c1)C(=O)N([C@H](C)CO)C[C@@H](C)[C@H](CN(C)C(=O)Nc1ccc(C(F)(F)F)cc1)O2 | 13 | 11
C[C@@H]1CCCCO[C@@H](CN(C)C)[C@@H](C)CN([C@@H](C)CO)C(=O)c2cc(NS(=O)(=O)c3ccccc3)ccc2O1 | 2 | -3
CO[C@H]1CN(C)C(=O)c2ccc(NC(=O)C3CC3)cc2OC[C@@H](C)N(Cc2ccc(F)cc2)C[C@@H]1C | -29 | -15
COc1ccc(S(=O)(=O)Nc2cccc3c2O[C@@H](CN(C)Cc2ccc(-c4ccccc4)cc2)[C@H](C)CN([C@@H](C)CO)C3=O)cc1 | 2 | 11
C[C@@H]1CN([C@@H](C)CO)C(=O)c2cccc(NS(C)(=O)=O)c2O[C@H]1CN(C)Cc1ccc(C(=O)Nc2ccccc2N)cc1 | 1 | 6

By substructure, those above with an aryl methoxy group (twelve)
SMILES | Vaccinia stage | Vaccinia stage Venus
COc1ccc(C#Cc2ccc3c(c2)[C@]2(C(=O)N3)[C@H](C(=O)N3CCCCCCC3)[C@H]3C(=O)O[C@H](c4ccccc4)[C@H](c4ccccc4)N3[C@@H]2c2ccc(O)cc2)cc1 | 2 | -3
COc1ccc(CN(C)C[C@@H]2OCCCC[C@@H](C)Oc3ccc(NS(=O)(=O)c4ccccc4)cc3C(=O)N([C@@H](C)CO)C[C@@H]2C)cc1 | -18 | -19
COc1ccc(CN(C)C[C@@H]2Oc3ccc(NC(=O)Nc4c(C)noc4C)cc3C(=O)N([C@@H](C)CO)C[C@H]2C)cc1 | 7 | 11
COc1ccc(-c2ccc3c(c2)[C@@H]2[C@@H](CCN2C(=O)c2cnccn2)[C@H](CO)N3)cc1 | 12 | 17
COc1cccc(CNC(=O)C[C@H]2CC[C@@H](NC(C)=O)[C@H](CO)O2)c1 | 2 | 4
COc1cccc(C(=O)Nc2ccc3c(c2)C(=O)N(C)[C@H]2CC[C@H](CC(=O)Nc4ccc5c(c4)CCCC5)O[C@@H]2CO3)c1 | -3 | -9
COc1ccc(CN(C)C[C@@H]2Oc3ccc(NC(=O)C4CC4)cc3CC(=O)N([C@@H](C)CO)C[C@H]2C)cc1 | -4 | -4
COc1ccc(-c2ccc([C@H]3[C@H]4CN(Cc5ccccc5)CC(=O)N4[C@H]3CO)cc2)cc1 | -11 | -8
COc1cccc(C#Cc2ccc3c(c2)O[C@@H](CN(C)S(=O)(=O)c2ccccc2F)[C@H](C)CN([C@H](C)CO)S3(=O)=O)c1 | -2 | 5
COc1ccc2c3c([nH]c2c1)[C@@H](CO)N(C(=O)c1ccc(F)cc1)CC31CCN(C(=O)Nc2cccc(F)c2)CC1 | -8 | -10
CCCC(=O)N1CC2(C1)CN(C(=O)C1CCOCC1)[C@@H](CO)c1[nH]c3cc(OC)ccc3c12 | 6 | 2
COc1ccc(S(=O)(=O)Nc2cccc3c2O[C@@H](CN(C)Cc2ccc(-c4ccccc4)cc2)[C@H](C)CN([C@@H](C)CO)C3=O)cc1 | 2 | 11

High-throughput results from PubChem BioAssay.
